Assay outcomes from PubChem.
HNF4A DNA FP: change in binding of human HNF4 alpha to DNA | HNF4a-FITC DNA binding, fluorescence polarization, 1 h | AID 1224865 | 0.3% of 360,000 active | activity change, % at 10 µM | P41235; in the data active = activity change above about 30%, passing the limit was not always enough;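 note: controls were the assay level and a saturating level of protein; the project sought stronger binding though the title names inhibitors; some compounds called inactive have numbers as strong as hits; positive values seem to mean higher polarization but the record does not say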
Target sequence (P41235 whole entry, looked up): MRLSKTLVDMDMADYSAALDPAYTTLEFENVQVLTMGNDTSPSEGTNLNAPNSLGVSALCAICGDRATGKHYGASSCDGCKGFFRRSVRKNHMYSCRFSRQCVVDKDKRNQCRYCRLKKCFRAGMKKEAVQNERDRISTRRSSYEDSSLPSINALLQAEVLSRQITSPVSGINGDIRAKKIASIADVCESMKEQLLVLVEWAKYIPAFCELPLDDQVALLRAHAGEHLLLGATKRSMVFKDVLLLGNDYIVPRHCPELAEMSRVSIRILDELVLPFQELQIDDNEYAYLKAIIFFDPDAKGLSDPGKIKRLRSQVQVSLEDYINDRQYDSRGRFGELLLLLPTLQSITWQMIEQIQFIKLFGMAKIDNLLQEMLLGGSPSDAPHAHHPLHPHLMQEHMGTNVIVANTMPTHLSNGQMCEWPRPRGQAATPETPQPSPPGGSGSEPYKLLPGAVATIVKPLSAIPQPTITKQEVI
* marks the source's active call; other numbers are inactive results.

mol | HNF4A DNA FP
Cc1cc(F)ccc1-c1cc(C(=O)NCc2ccccc2)[nH]n1 | -1.2
O=C(Nc1ccc2c(c1)OCCO2)C1c2ccccc2OCC(=O)N1Cc1ccc2c(c1)OCO2 (stereo unspecified) | 2.7
CCc1ccc(C=C2SC(=S)N(CCCC(=O)Nc3ccc(C(=O)O)cc3)C2=O)cc1 | -2.0
COc1ccccc1-c1cc(NC=O)c2ncc(-c3ccc(S(C)(=O)=O)cc3)n2c1 | 2.5
O=C(NC1CCCCC1)C(c1ccnc2ccccc12)N1CCc2ccccc2C1 (stereo unspecified) | -6.7
CC1=C(C(=O)N2CCCCCC2)CC(CC(=O)NCc2cccs2)C(=O)N1CCC1=CCCCC1 (stereo unspecified) | 4.0
Nc1nc(CSc2nnnn2-c2ccccc2)nc(Nc2ccccc2)n1 | -0.5
CC1(C(=O)NS(=O)(=O)c2ccccc2)CCN1C(=O)Cc1ccccc1 (stereo unspecified) | -3.1
c1ccc(CNc2nc(NCCc3ccncc3)c3sccc3n2)cc1 | 1.7
CSc1ccc(Cn2c(C)c(C(=O)NCc3ccco3)sc2=O)cc1 | 2.4
COc1ccc(NS(=O)CCCc2ccccc2)cc1 (stereo unspecified) | 4.9
COC(=O)[C@@]1(C(C)C)N=C(c2cc(OC)c(OC)c(OC)c2)[C@]2(O1)C(=O)N(C)c1ccc(Br)cc12 | -1.4
CCNC(=O)c1cc2c(c(-c3cccc(-c4cncnc4)c3)n1)[C@@H](CCO)N(C(C)=O)C2 | 0.1
COc1cccc(Nc2nc(C(N)CO)cs2)n1 (stereo unspecified) | 2.2
CCCCC(=O)N(C)c1c(C)nc2ccc(C(=O)N3CCN(c4ccccc4)CC3)cn12 | 4.6

Filtered by structure: the entries above with a halogen.
mol | HNF4A DNA FP
Cc1cc(F)ccc1-c1cc(C(=O)NCc2ccccc2)[nH]n1 | -1.2
COC(=O)[C@@]1(C(C)C)N=C(c2cc(OC)c(OC)c(OC)c2)[C@]2(O1)C(=O)N(C)c1ccc(Br)cc12 | -1.4

Remaining list, next part:
mol | HNF4A DNA FP
Cc1ccc2c(CN3CCN(c4ccccc4)CC3)cc(=O)oc2c1 | 3.3
CCCCc1ccc(S(=O)(=O)NC(=O)C2(C)CCN2C(=O)c2cccc(F)c2)cc1 (stereo unspecified) | -0.1
COC(=O)[C@]12CCCCC=C1N(Cc1ccco1)C(=O)[C@H](CC(=O)NCC13CC4CC(CC(C4)C1)C3)C2 | 1.0
O=C(NCc1ccccc1)C(c1ccncc1)n1c(=O)c(-c2cc3ccccc3[nH]2)nc2ccccc21 (stereo unspecified) | 3.1
OC(c1ccc(F)c(F)c1)c1nc(-c2cccs2)cs1 (stereo unspecified) | -1.1
CC1(C(=O)NS(C)(=O)=O)CCN1C(=O)Cc1ccc(-c2ccccc2)cc1 (stereo unspecified) | -1.1
Nc1nc2c(ncn2[C@@H]2O[C@H](CNCC3=Cc4cc(O)ccc4OC3)[C@@H](O)[C@H]2O)c(=O)[nH]1 | -1.1
O=C(Nc1ccccc1)c1cc(C2CCCCN2S(=O)(=O)Cc2cccc(C(F)(F)F)c2)on1 (stereo unspecified) | -1.7
CC(C)C[C@H]1CNC(=O)C(=O)N1CC1CCN(CCC(C)c2ccccc2)CC1 (stereo partly specified) | 8.4
COc1ccc(NC(=O)C2(C)CCN2C2Cc3ccccc3C2)cc1OC (stereo unspecified) | -0.7
CC1=C(C(=O)N(C)C)CC(CC(=O)NC2CCCCC2)C(=O)N1Cc1ccc(F)cc1 (stereo unspecified) | 0.8
Cc1ccc(N(CC(=O)N2CCCCCC2)S(C)(=O)=O)cc1 | -1.4
CSc1ccc(-c2ccc3c(c2)c(Sc2ccccc2)c(-c2ccccc2)n3C)cc1 | -1.4
CCOC(=O)N1CCN(C(=O)C[C@@H]2C[C@@]3(C(=O)OC)CC(C)(C)CC=C3N(Cc3ccco3)C2=O)CC1 | 2.7
CS(=O)(=O)c1ccc(Nc2nc(C(N)c3ccccc3Cl)cs2)cc1 (stereo unspecified) | 0.9
CO[C@@H]1[C@@H](OC(N)=O)[C@@H](O)[C@H](Oc2ccc3c(O)c(NC(=O)c4ccc(O)c(CC=C(C)C)c4)c(=O)oc3c2C)OC1(C)C | -1.4
Cc1cccc(CN2CCN(C3CN(Cc4cn(Cc5ccccc5)nn4)S(=O)(=O)C3)CC2)c1 (stereo unspecified) | -0.2
CO[C@@H]1CN(C)C(=O)c2ccc(NS(=O)(=O)c3c(C)noc3C)cc2OC[C@@H](C)NC[C@@H]1C | 4.0
C[C@H](CO)N1C[C@H](C)[C@@H](CN(C)C(=O)Nc2ccccc2)Oc2ncc(C#CC3CCCCC3)cc2C1=O | -1.1
C[C@H]1CN([C@@H](C)CO)S(=O)(=O)c2ccc(Br)cc2O[C@@H]1CN(C)C(=O)Cc1ccccc1 | 1.5
COc1ccc(CNc2nn3c(-c4cccc(C(=O)N(C)C)c4)cnc3s2)cc1 | 2.1
CCCCn1nnnc1C(c1ccccc1)N1CCN(CC)CC1 (stereo unspecified) | -2.6
CC1(C(=O)Nc2ccc3c(c2)OCCO3)CN(S(C)(=O)=O)CC(=O)N1C1CCCCCC1 (stereo unspecified) | 4.6
COc1cc(C(O)c2nc(-c3cccs3)cs2)ccc1F (stereo unspecified) | -1.4
O=S1(=O)N[C@@H](Cc2ccccc2)COc2cc(N3CCC[C@H]3CO)ccc21 | 3.8
O=C(NCC1CCCO1)c1[nH]c(C(F)(F)F)nc1-c1ccccc1 (stereo unspecified) | -1.5
CC1(C(=O)NS(=O)(=O)c2ccc(F)cc2F)CCN1C(=O)Cc1cccc2ccccc12 (stereo unspecified) | -5.5
CC(=O)OC[C@@H]1CN(Cc2ccccc2)C[C@H](n2cnc3c(NC4CCC4)ncnc32)O1 | 4.5
CCCc1c(-c2cccc(Br)c2)ncn1Cc1ccccc1OC | 3.4
O=C(C(=O)N1CCC(Cc2ccccc2)CC1)c1cccs1 | 2.5
O=C(Nc1ccc(Cl)cc1)c1csc([C@@H]2O[C@H](CO)[C@H](O)[C@H](O)[C@H]2O)n1 | -1.3
Cc1cccc(C)c1-n1nnnc1C1c2ccccc2C(=O)N1CCC(C)C (stereo unspecified) | -1.0
NCc1csc(NC(=O)Nc2cccc(C(F)(F)F)c2)n1 | 2.0
COC(=O)[C@H](CC(C)C)NC(=O)CC[C@H]1O[C@@H](n2ccc(=O)[nH]c2=O)[C@H](O)[C@@H]1O | -2.2
CCC(=O)N1CCCC(C(=O)NS(=O)(=O)c2cc(C)c(Cl)cc2C)CC1 (stereo unspecified) | 2.9
CCc1nc2c(OCC3COc4ccccc4O3)cccn2c1N(C)C(=O)c1ccccc1F (stereo unspecified) | 7.7
O=C(CSc1ccc(F)cc1)NC(=O)c1ccccc1 | 1.8
CC(C)(C)Cc1c(C2CCCCC2)nc2ccc(Br)cn12 | 1.9
CC(C)(C)OC(=O)N1CCc2onc(-c3ccccc3[N+](=O)[O-])c2C1=O | 4.8
COC(=O)c1ccc2nc(-c3ccc(OC)c(OC)c3)c(Cc3ccc(C)cc3)n2c1 | 4.0
N#Cc1ccc(-c2nc3ccc(Cl)cn3c2Cc2ccccc2)cc1 | 4.9
CC(C)C[C@H]1CNC(=O)C(=O)N1C[C@H]1CCCN1C[C@H](CC(C)C)N1C[C@H](Cc2ccccc2)N(CCc2ccccc2)C(=O)C1=O | 4.8
OC(c1ccc(F)cc1)c1nc(-c2ccncc2)cs1 (stereo unspecified) | -0.7
CCOc1ccccc1NC(=O)C1CCCN1S(=O)(=O)c1ccc2c(c1)C(C)(C)C(=O)N2C (stereo unspecified) | -1.1
CCc1nc2ccc(C(=O)N3CCN(C(=O)c4ccco4)CC3)cn2c1N(C)C(=O)c1cccc(OC)c1 | -2.8

Some of the entries above in a different format:
O=C(C(=O)N1CCC(Cc2ccccc2)CC1)c1cccs1
  HNF4A DNA FP = 2.5

O=C(Nc1ccc(Cl)cc1)c1csc([C@@H]2O[C@H](CO)[C@H](O)[C@H](O)[C@H]2O)n1
  HNF4A DNA FP = -1.3

Cc1cccc(C)c1-n1nnnc1C1c2ccccc2C(=O)N1CCC(C)C (stereo unspecified)
  HNF4A DNA FP = -1.0

NCc1csc(NC(=O)Nc2cccc(C(F)(F)F)c2)n1
  HNF4A DNA FP = 2.0

Later entries.
| molecule | HNF4A DNA FP |
| --- | --- |
| N#Cc1ccc(-c2nc3ccc(Br)cn3c2Cc2cccc(Cl)c2)cc1 | 8.1 |
| CCCN(CCC)Cc1cc(=O)oc2cc(OC)ccc12 | 2.5 |
| COc1ccc(-c2cnc3c(NC=O)cc(-c4ccccc4OC)cn23)cc1OC | 5.2 |
| CC(C)CNc1ncnc2c1ncn2[C@H]1CN(CCc2ccccc2)C[C@@H](CO)O1 | -0.9 |
| Cc1cc2nc(-c3ccco3)c(Cc3cccc(Cl)c3)n2c(C)c1Br | 5.8 |
| CCOC(=O)N1CCN(C(=O)c2ccc3oc(CCc4ccccc4)nc3c2)CC1 | -0.7 |
| Cc1ccc(S(=O)(=O)N2C(c3ccc(Cl)c(Cl)c3)CC=C(C(=O)O)C2c2ccc(Cl)cc2)cc1 (stereo unspecified) | -1.4 |
| CCN(CC)CCN1CCN(c2cncc(-c3ccc4ccccc4c3)n2)CC1 | -3.2 |
| COc1ncc(-c2ccc(N3C(c4ccsc4)=Cc4ccc(F)cc4C3CC(=O)c3ccco3)cc2)cn1 (stereo unspecified) | -0.3 |
| O=S(=O)(Nc1ccc(C(O)(C(F)(F)F)C(F)(F)F)cc1)c1cccc2cccnc12 | -2.0 |
| C[C@H](CO)N1C[C@H](C)[C@H](CN(C)Cc2cncnc2)Oc2cc(Br)ccc2S1(=O)=O | -0.7 |
| CCOC(=O)[C@]12CCC=C1N(Cc1cccc3ccccc13)C(=O)[C@H](CC(=O)N1CCCC1)C2 | -0.1 |
| CCOC(=O)N(C)c1c(CC)nc2c(OCCOc3ccccc3)cccn12 | -3.1 |
| CSc1ccc(CNC(=O)C2(C)CCCN(C(C)C)C2)cc1 (stereo unspecified) | -1.3 |
| CCOC(=O)C1=CCC(c2ccccc2)N(S(=O)(=O)c2ccccc2)C1 (stereo unspecified) | 2.0 |
| COc1ccc(S(=O)(=O)N2CCOC2CNC(=O)C(=O)NCc2ccc3c(c2)OCO3)cc1C (stereo unspecified) | 3.7 |
| CC(C)COC(=O)N(C)C[C@@H]1OCc2cnnn2CCCC(=O)N([C@@H](C)CO)C[C@@H]1C | -0.4 |
| CC1OC(C(C)(C)C)CC2=C1C(=O)OC(C)(C)O2 (stereo unspecified) | -1.8 |
| O=C(O)C(Cc1c[nH]c2ccccc12)NS(=O)(=O)c1ccc(F)cc1 (stereo unspecified) | -2.5 |
| CCCCCCCCN1C(=O)[C@H](CC(=O)N2CCOCC2)C[C@@]2(C(=O)OC)CCCCC=C12 | 3.4 |
| NC(=O)c1ccc(-c2ccc(N3C(c4ccsc4)=Cc4ccc(F)cc4C3CC(=O)c3ccco3)cc2)cc1 (stereo unspecified) | 6.2 |
| COC(=O)C1C(=O)N(S(=O)(=O)c2ccc([N+](=O)[O-])cc2)c2ccccc21 (stereo unspecified) | 0.2 |
| CCOC(=O)C1(C)CCCN(C(=O)c2ccc(OC(F)F)cc2)C1 (stereo unspecified) | -1.1 |
| CC(C)C[C@@H]1CN(CCCC[C@H]2CNC(=O)C(=O)N2CCC2CCCCC2)C(=O)C(=O)N1CCc1ccc(O)cc1 | -3.9 |
| Cc1csc(-c2cc(C(=O)NCc3cc(C(F)(F)F)cc(C(F)(F)F)c3)n[nH]2)c1 | -1.7 |
| CCOC(=O)C1=CCN(S(=O)(=O)c2ccccc2Cl)C1c1ccccc1 (stereo unspecified) | -1.8 |
| Cc1cccc(/C=C/c2ccccc2)n1 | 2.9 |
| COc1ccc(-n2nnnc2C(CCc2ccccc2)N2CCN(C/C=C/c3ccccc3)CC2)cc1 (stereo unspecified) | 0.6 |
| CC1(C(=O)NS(C)(=O)=O)CCN1C(=O)C/C=C/c1ccccc1 (stereo unspecified) | 1.3 |
| Cc1cccc(C)c1NC(=O)C(c1ccncc1)N1CCN(CCN(C)C)CC1 (stereo unspecified) | 2.3 |

2 of these compounds in a different format.
HNF4A DNA FP,Structure
3.4,CCCCCCCCN1C(=O)[C@H](CC(=O)N2CCOCC2)C[C@@]2(C(=O)OC)CCCCC=C12
6.2,NC(=O)c1ccc(-c2ccc(N3C(c4ccsc4)=Cc4ccc(F)cc4C3CC(=O)c3ccco3)cc2)cc1 (stereo unspecified)

Following part.
| molecule | HNF4A DNA FP |
| --- | --- |
| N#Cc1cccc(-c2csc(C(O)c3ccc(F)cc3)n2)c1 (stereo unspecified) | 2.3 |
| CC1(C(=O)Nc2ccc3c(c2)OCCO3)CCN1C(=O)Cc1ccc(-c2ccccc2)cc1 (stereo unspecified) | -2.2 |
| Oc1cccc2cc(-c3ccncc3)cnc12 | 2.2 |
| COCCNc1ncnc2c1ncn2[C@H]1CN(Cc2ccc(Cl)cc2)C[C@@H](CO)O1 | 0.0 |
| Clc1ccccc1Nc1nc(NCc2ccccc2)nc2ccsc12 | -2.0 |
| OC[C@@H]1CN(Cc2ccc(Cl)cc2)C[C@H](n2cnc3c(NCc4ccco4)ncnc32)O1 | 2.6 |
| CC(=O)NC(c1ccc(F)c(F)c1)c1nc(-c2ccc(C)c(C)c2)cs1 (stereo unspecified) | 1.8 |
| COc1ccc(OC(=O)N(C)C[C@@H]2OCc3cn(nn3)CCCC(=O)N([C@H](C)CO)C[C@H]2C)cc1 | -0.1 |
| CC(C)c1ccc(NC(=O)Nc2nc(C(N)c3ccccc3Cl)cs2)cc1 (stereo unspecified) | 2.8 |
| CCCCC[C@H](C)N1C[C@@H](COCc2ccccc2)Oc2cc(N3CC[C@@H](O)C3)ccc2S1(=O)=O | 1.4 |
| COc1cccc(-c2cc(CNC(=O)[C@H]3O[C@@H](n4ccc(N)nc4=O)[C@H](O)[C@@H]3O)no2)c1 | 5.5 |
| O=C(CC1c2ccccc2C=C(c2ccsc2)N1c1ccc(-c2cccnc2)cc1)C1CC1 (stereo unspecified) | -4.0 |
| COC(=O)[C@]12CCCCC=C1N(Cc1ccc(Cl)cc1Cl)C(=O)[C@H](CC(=O)NCc1cccs1)C2 | 0.0 |
| COc1ccc(C(=O)N2CCC2(C)C(=O)O)cc1F (stereo unspecified) | -1.4 |

The list is partial, so the mix of outcomes need not match the whole.
